High-throughput results deposited in PubChem BioAssay by Broad Institute.
Vaccinia inh – blocks a specific stage of Vaccinia orthopoxvirus infection; activity change (mCherry), % (test concentration not listed); 89,000 tested, 0.01% active; AID 1053133; Vaccinia-infected cells, mCherry/Venus stage reporter fluorescence; stronger effect = lower value; some inactives read as strong as hits;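 active means mCherry past -33% and 40 or more points under the early reporter, replicates agreeing; inconclusive means past -33% without that gap or agreement; tested in A549 cells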;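 further: scaled between vehicle wells and reference inhibitor wells; 23 nL library stock went into each well; one replicate is shown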
Vaccinia inh Venus – recorded beside Vaccinia inh, whose call it bears; activity change (Venus), %; measured here: Venus reporter, other viral stage;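 negative = less Venus signal; first of two replicates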
The depositor's hits bear a star; ? = inconclusive; . = no result given.

smiles | Vaccinia inh Venus | Vaccinia inh
C[C@H]1CN([C@@H](C)CO)C(=O)c2cc(NC(=O)CCCN(C)C)ccc2O[C@@H]1CN(C)C | 16.6 | 29.2
CO[C@H](CN(C)S(=O)(=O)c1cccc(Cl)c1)[C@H](C)CN([C@@H](C)CO)S(=O)(=O)c1ccc(Cl)cc1 | . | ?
C[C@@H]1CN([C@@H](C)CO)C(=O)c2cc(Br)cnc2O[C@H]1CN(C)Cc1ccccn1 | -0.9 | 5.2
C[C@@H]1CN([C@H](C)CO)C(=O)c2cc(NC(=O)CCC(F)(F)F)ccc2O[C@@H]1CN(C)C(=O)Nc1cccc2ccccc12 | 2.0 | 4.3
C[C@H]1CN([C@@H](C)CO)C(=O)c2cc(NC(=O)C3CCCCC3)ccc2O[C@H]1CN(C)C(=O)Nc1ccc2c(c1)OCO2 | -0.1 | -12.8
N#Cc1ccc(-c2ccc([C@@H]3[C@@H](CO)N4C(=O)CN(C(=O)C5CCC5)C[C@H]34)cc2)cc1 | 0.3 | -10.8
C[C@@H]1CN([C@H](C)CO)C(=O)c2cc(-c3ccc(C#N)cc3)cnc2O[C@H]1CN(C)C(=O)CN(C)C | 7.3 | 23.3
CO[C@H](CN(C)Cc1ccc(-c2ccccn2)cc1)[C@@H](C)CN(C(=O)Nc1ccc(F)cc1)[C@@H](C)CO | -2.3 | -1.1
O=C(CN1CCOCC1)N1CC(=O)N2[C@H](CO)[C@H](c3ccc(-c4cccc(F)c4)cc3)[C@@H]2C1 | -3.4 | 3.3
CO[C@@H](C(=O)N(C)C[C@H]1OCc2ccccc2-c2ccccc2C(=O)N([C@@H](C)CO)C[C@@H]1C)c1ccccc1 | -3.1 | -0.7
C/C=C/c1ccc2c(c1)O[C@@H](CN(C)Cc1cccc(F)c1)[C@H](C)CN([C@H](C)CO)S2(=O)=O | . | ?
CN(C)C(=O)[C@H]1[C@H](CO)[C@H]2Cn3c(ccc(-c4ccc(F)cc4)c3=O)[C@H]2N1C(=O)c1ccccn1 | 8.8 | 7.5
O=C(C[C@@H]1CC[C@H](NC(=O)c2ccccn2)[C@H](CO)O1)NCc1cc(F)cc(F)c1 | 0.7 | 5.3
C[C@H]1CN([C@@H](C)CO)C(=O)c2cc(NC(=O)c3ccncc3)ccc2O[C@@H]1CN(C)Cc1ccccc1 | 11.5 | 28.1
CC(C)NC(=O)N(C)C[C@@H]1Oc2ncc(C#Cc3ccccc3F)cc2C(=O)N([C@@H](C)CO)C[C@H]1C | 1.9 | 5.4
CC=Cc1ccc2n(c1=O)C[C@@H]1[C@@H](CO)[C@H](C(=O)Nc3nccs3)N(Cc3ccccc3F)[C@H]21 (mixture of isomers) | 20.5 | 15.6
C[C@@H]1CN([C@@H](C)CO)C(=O)c2cc(C#CCN(C)C)cnc2O[C@@H]1CN(C)Cc1ccccc1 | 12.3 | 24.0
CCNC(=O)C[C@@H]1CC[C@H]2[C@@H](COc3ccc(NC(=O)Nc4ccccc4OC)cc3C(=O)N2C)O1 | -2.7 | 1.9
COc1ccccc1NC(=O)N[C@@H]1CC[C@@H](CC(=O)N[C@H](C)c2ccccc2)O[C@@H]1CO | -4.0 | -3.0
CN1CCN(C(=O)C[C@@H]2CC[C@H]3[C@H](COc4ccc(NC(=O)C5CCC5)cc4C(=O)N3C)O2)CC1 | 3.3 | 21.9
CC(C)NC(=O)Nc1cccc2c1O[C@H](CN(C)S(=O)(=O)c1ccccc1)[C@H](C)CN([C@H](C)CO)C2=O | -6.7 | 3.4
O=C(O)[C@H]1[C@H](CO)[C@H]2Cn3c(ccc(-c4ccccc4F)c3=O)[C@@H]1N2C(=O)Nc1ccccc1 | 8.5 | 11.5
COc1cccc(C#Cc2ccc([C@@H]3[C@H](CO)N4C(=O)CN(S(=O)(=O)c5ccccc5C)C[C@@H]34)cc2)c1 | -9.1 | 2.6
CC(C)NC(=O)Nc1ccc2c(c1)C(=O)N([C@H](C)CO)C[C@H](C)[C@H](CN(C)C(=O)NC1CCCCC1)OCCCC[C@@H](C)O2 | 5.4 | 27.1
CCCNC(=O)C[C@@H]1C[C@@H]2c3cc(NC(=O)CC4CC4)ccc3O[C@@H]2[C@H](CO)O1 | 7.8 | 16.1
O=C(Nc1ccccc1F)N1CC(=O)N2[C@H](CO)[C@@H](c3ccc(-c4cccnc4)cc3)[C@H]2C1 | 0.3 | -1.4
C[C@@H]1CN([C@@H](C)CO)S(=O)(=O)c2ccc(C#Cc3cccnc3)cc2O[C@@H]1CN(C)C(=O)CN(C)C | -8.1 | -3.9
COc1ccc(NC(=O)N(C)C[C@H]2OCCCC[C@@H](C)Oc3ccc(NC(=O)NC4CCCCC4)cc3C(=O)N([C@H](C)CO)C[C@H]2C)cc1 | -7.5 | 5.3
C[C@@H]1CN([C@@H](C)CO)C(=O)c2c(c3ccccc3n2C)-c2ccccc2CO[C@@H]1CN(C)Cc1ccc2c(c1)OCO2 | . | ?
C[C@H](CO)N1C[C@H](C)[C@@H](CN(C)C(=O)Nc2cccc(F)c2)OCc2ccccc2-c2c(n(C)c3ccccc23)C1=O | -23.1 | -27.0
Cc1ccc(S(=O)(=O)Nc2ccc3c(c2)C(=O)N([C@@H](C)CO)C[C@H](C)[C@@H](CN(C)S(=O)(=O)c2cccs2)OCCCC[C@@H](C)O3)cc1 | -19.4 | -26.4
CN(C)C(=O)c1ccc(-c2ccccc2[C@H]2[C@H](C#N)N(C(=O)C3CCC3)[C@H]2CO)cc1 | 5.6 | 9.3
CO[C@H]1CN(C)C(=O)c2ccc(NC(=O)NC(C)C)cc2OC[C@@H](C)N(C(=O)NC(C)C)C[C@H]1C | 7.2 | 10.9
COc1ccccc1-c1ccc2c(c1)O[C@H](CN(C)C(=O)c1ccccc1)[C@@H](C)CN([C@@H](C)CO)S2(=O)=O | -26.6 | -23.3
O=C(C1CCOCC1)N1CC(=O)N2[C@H](CO)[C@H](c3ccc(C#CCc4ccccc4)cc3)[C@@H]2C1 | 3.7 | 0.6
COc1ccc(NC(=O)Nc2ccc3c(c2)C(=O)N([C@H](C)CO)C[C@@H](C)[C@H](CN(C)Cc2ccc(C(F)(F)F)cc2)OCCCC[C@@H](C)O3)cc1 | -20.7 | -28.7
C[C@@H]1CCCCO[C@H](CN(C)Cc2ccccc2)[C@H](C)CN([C@@H](C)CO)C(=O)c2cc(NS(C)(=O)=O)ccc2O1 | -10.6 | -6.0
O=C(C[C@H]1C[C@@H]2c3cc(NC(=O)c4cccnc4)ccc3O[C@@H]2[C@@H](CO)O1)NCc1ccc(Oc2ccccc2)cc1 | -1.0 | -5.3
CCCNC(=O)Nc1ccc2c(c1)C(=O)N(C)C[C@H](OC)[C@H](C)CN(C(C)=O)[C@H](C)CO2 | 18.5 | 10.1
O=C(C[C@H]1C[C@@H]2c3cc(NS(=O)(=O)c4ccc(F)cc4)ccc3O[C@@H]2[C@@H](CO)O1)NCc1ccncc1 | 17.4 | 1.3
COc1ccc(NC(=O)N(C)C[C@H]2OCc3ccccc3-c3c(n(C)c4ccccc34)C(=O)N([C@H](C)CO)C[C@H]2C)c(OC)c1 | . | ?
C[C@@H]1CN([C@@H](C)CO)S(=O)(=O)c2ccc(C#Cc3ccccc3)cc2O[C@@H]1CN(C)C(=O)C1CC1 | -30.3 | -29.0
Cc1noc(C)c1NC(=O)N(C)C[C@H]1Oc2ncc(/C=C/c3ccccc3)cc2C(=O)N([C@@H](C)CO)C[C@@H]1C | -4.5 | -10.6
COc1ccc(NC(=O)N(C)C[C@H]2OCCCC[C@H](C)Oc3ccc(NC(=O)c4ccccc4)cc3C(=O)N([C@@H](C)CO)C[C@@H]2C)cc1 | -10.5 | -14.6
C[C@@H]1CN([C@@H](C)CO)C(=O)Cc2cc(NS(=O)(=O)c3cn(C)cn3)ccc2O[C@@H]1CN(C)C(=O)Nc1ccc2c(c1)OCO2 | -5.3 | 4.9
CC=Cc1ccc2n(c1=O)C[C@H]1[C@H](CO)[C@@H](C(=O)NCC3CC3)[C@@H]2N1CCC(F)(F)F (mixture of isomers) | 17.1 | 7.5
C[C@@H]1CN([C@@H](C)CO)C(=O)c2cc(NS(C)(=O)=O)ccc2O[C@@H]1CN(C)C(=O)Nc1ccc(F)cc1 | 10.3 | -2.0
O=C(Nc1cccc(Cl)c1)N1C[C@H]2[C@@H](c3ccccc31)[C@H](CO)N2Cc1cccnc1 | 3.5 | 2.1
C[C@H](CO)N1C[C@H](C)[C@H](CN(C)C(=O)Nc2ccccc2)Oc2ccc(NC(=O)CCN3CCOCC3)cc2CC1=O | 9.6 | 19.4
CC(C)CC#Cc1ccc2c(c1)O[C@H](CN(C)Cc1cccnc1)[C@H](C)CN([C@@H](C)CO)S2(=O)=O | . | ?

Next part:
smiles | Vaccinia inh Venus | Vaccinia inh
CN1CCN(C(=O)C[C@@H]2CC[C@H]3[C@@H](COC[C@@H](O)CN3C(=O)Cc3ccccc3)O2)CC1 | 8.5 | 10.5
O=C(NCC[C@H]1CC[C@@H](NC(=O)C2CCOCC2)[C@H](CO)O1)Nc1ccc(Cl)cc1 | 3.5 | 8.9
Cc1ccc(S(=O)(=O)N(C)C[C@@H]2Oc3ccc(NS(=O)(=O)c4ccc(Cl)cc4)cc3C(=O)N([C@@H](C)CO)C[C@@H]2C)cc1 | 2.7 | 8.6
C[C@@H]1CN([C@@H](C)CO)C(=O)c2cc(NC(=O)C3CC3)ccc2O[C@@H]1CN(C)C(=O)Nc1ccccc1 | 13.4 | 11.7
CC(=O)N(C)C[C@@H]1Oc2cc(C#Cc3cccnc3)ccc2S(=O)(=O)N([C@H](C)CO)C[C@@H]1C | 6.9 | 16.5
C[C@@H]1CN([C@H](C)CO)C(=O)c2cccc(N(C)C)c2O[C@H]1CN(C)Cc1ccc(C(=O)O)cc1 | 5.9 | 6.5
CCCNC(=O)[C@H]1[C@H](CO)[C@H]2Cn3c(ccc(-c4cccc(F)c4)c3=O)[C@H]2N1C(C)=O | 13.4 | 11.6
COc1ccc(S(=O)(=O)N(C)C[C@@H]2Oc3ccc(NC(=O)CCCCCC(=O)Nc4ccccc4N)cc3CC(=O)N([C@@H](C)CO)C[C@H]2C)cc1 | 11.9 | 16.5
C[C@@H]1CN([C@H](C)CO)C(=O)Cc2cc(NC(=O)Nc3ccc(F)cc3)ccc2O[C@H]1CN(C)CC1CCCCC1 | -20.6 | -32.1
COc1ccccc1-c1ccc2n(c1=O)C[C@@H]1[C@@H](CO)[C@H](C(=O)N(C)C)[C@H]2N1C(=O)c1cccnc1 | 0.0 | 4.8

Part of the list above in order of heavy-atom count, falling:
smiles | Vaccinia inh Venus | Vaccinia inh
COc1ccc(S(=O)(=O)N(C)C[C@@H]2Oc3ccc(NC(=O)CCCCCC(=O)Nc4ccccc4N)cc3CC(=O)N([C@@H](C)CO)C[C@H]2C)cc1 | 11.9 | 16.5
Cc1ccc(S(=O)(=O)N(C)C[C@@H]2Oc3ccc(NS(=O)(=O)c4ccc(Cl)cc4)cc3C(=O)N([C@@H](C)CO)C[C@@H]2C)cc1 | 2.7 | 8.6
CC(=O)N(C)C[C@@H]1Oc2cc(C#Cc3cccnc3)ccc2S(=O)(=O)N([C@H](C)CO)C[C@@H]1C | 6.9 | 16.5
CCCNC(=O)[C@H]1[C@H](CO)[C@H]2Cn3c(ccc(-c4cccc(F)c4)c3=O)[C@H]2N1C(C)=O | 13.4 | 11.6

Later entries.
smiles | Vaccinia inh Venus | Vaccinia inh
COc1cccc(-c2ccc3c(c2)O[C@@H](CN(C)C(=O)C2CCCCC2)[C@@H](C)CN([C@H](C)CO)S3(=O)=O)c1 | . | ?
O=S(=O)(c1ccccc1)N1CCCCN2[C@@H](CO)[C@H](c3ccc(-c4cncnc4)cc3)[C@@H]2C1 | -7.6 | -3.1
CCCNC(=O)N(C)C[C@H]1Oc2ncc(C#CC3CCCCC3)cc2C(=O)N([C@H](C)CO)C[C@@H]1C | -3.0 | -9.9
Cc1noc(C)c1NC(=O)Nc1ccc2c(c1)C(=O)N([C@@H](C)CO)C[C@@H](C)[C@H](CN(C)Cc1ccncc1)O2 | -0.8 | 4.7
CNC[C@H]1Oc2c(NC(=O)Nc3ccc4c(c3)OCO4)cccc2C(=O)N([C@H](C)CO)C[C@@H]1C | 5.1 | 2.1
CC(C)C#Cc1ccc2c(c1)O[C@@H](CN(C)C(=O)c1cccc(F)c1)[C@H](C)CN([C@@H](C)CO)S2(=O)=O | . | ?
CCC(=O)N(C)C[C@H]1Oc2ncc(C#Cc3ccccc3OC)cc2C(=O)N([C@@H](C)CO)C[C@@H]1C | -13.6 | 0.3
C[C@@H](NC(=O)N(C)C[C@@H]1OCc2ccccc2-c2ccccc2C(=O)N([C@@H](C)CO)C[C@@H]1C)c1ccccc1 | 10.7 | 11.6
O=C([C@H]1[C@H](CO)[C@H]2Cn3c(ccc(-c4ccccc4F)c3=O)[C@H]2N1CC1CC1)N1CCCCC1 | -5.5 | -7.4
Cc1ccc(-c2cnc3c(c2)C(=O)N([C@H](C)CO)C[C@H](C)[C@@H](CN(C)C)O3)cc1 | -1.0 | 8.9
O=C(C[C@H]1CC[C@H]2[C@@H](COC[C@H](O)CN2Cc2ccncc2)O1)NCC1CC1 | 7.8 | 8.4
C[C@@H]1CN([C@H](C)CO)C(=O)c2cc(C3=CCCCC3)cnc2O[C@H]1CN(C)C(=O)c1cccc(F)c1 | 4.7 | 1.3
O=C(C1CCCC1)N1CC(=O)N2[C@H](C1)[C@H](c1ccc(C#CCc3ccccc3)cc1)[C@@H]2CO | 7.8 | -3.5
OC[C@@H]1[C@@H]2c3ccccc3NC[C@@H]2N1Cc1cccnc1 | 16.4 | 13.5
C[C@H](CO)N1C[C@H](C)[C@@H](CN(C)S(=O)(=O)c2ccc(Cl)cc2)Oc2c(NC(=O)Nc3ccc(F)cc3)cccc2C1=O | -9.0 | -15.6
C[C@@H]1CN([C@@H](C)CO)C(=O)c2cc(NC(=O)CCC(F)(F)F)ccc2O[C@@H](C)CCCCO[C@@H]1CN(C)C(=O)Nc1ccc(C(F)(F)F)cc1 | 4.5 | 12.8
C[C@@H]1CN([C@H](C)CO)C(=O)CCCn2cc(nn2)CO[C@H]1CN(C)S(=O)(=O)c1ccc(-c2ccccc2)cc1 | 4.2 | 7.9

Some of the compounds tested, so the mix of outcomes need not match the whole.
